Screening results (PubChem BioAssay)
TRPML1 ag: qHTS for Agonists of the Human Mucolipin Transient Receptor Potential 1 (TRPML1); Mucolipin-1 (Homo sapiens), Q9GZU1; TRPML1-expressing cells, Ca2+ dye fluorescence, FDSS; host cell line not named in the record; reference of the full effect not given here; activation, % (test concentration not listed); hit rate 0.12% among 410,000; AID 624414, 2012; in the data active = activation above about 50%; inconclusive = about 30% to 50%; inactive = below about 30%; note: 0% is about no effect; the text of the record puts the active cut at 80%
Target sequence (Q9GZU1 whole entry, looked up): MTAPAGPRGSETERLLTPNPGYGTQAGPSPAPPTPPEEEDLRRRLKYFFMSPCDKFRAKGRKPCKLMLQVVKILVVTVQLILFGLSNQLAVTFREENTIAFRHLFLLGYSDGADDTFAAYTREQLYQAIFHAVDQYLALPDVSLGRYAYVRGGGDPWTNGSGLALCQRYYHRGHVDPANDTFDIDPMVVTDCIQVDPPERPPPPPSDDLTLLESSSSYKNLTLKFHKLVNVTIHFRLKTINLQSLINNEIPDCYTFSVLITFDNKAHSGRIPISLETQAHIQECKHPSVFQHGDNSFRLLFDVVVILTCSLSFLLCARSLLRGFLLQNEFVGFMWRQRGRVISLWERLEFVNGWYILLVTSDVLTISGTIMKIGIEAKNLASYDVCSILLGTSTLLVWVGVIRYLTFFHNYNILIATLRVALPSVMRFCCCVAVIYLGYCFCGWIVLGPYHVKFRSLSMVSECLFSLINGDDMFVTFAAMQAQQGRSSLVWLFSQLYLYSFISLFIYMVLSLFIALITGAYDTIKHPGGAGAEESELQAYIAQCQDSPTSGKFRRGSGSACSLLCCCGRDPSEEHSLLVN
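Agonist activity was taken from a 110 s kinetic Ca2+ dye read on the FDSS after pinning compounds onto TRPML1-DL cells. The cells were seeded at 1,500/well with Tet inducer, incubated about 16 h, then dye-loaded at room temperature.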
PINK1 expr mod: A Quantitative High throughput Screen to Identify Chemical Modulators of PINK1 Expression | PINK1 immunofluorescence, high-content cytometry, 24 h | Potency, µM (doses to about 76.6 µM), without a hit: at the highest dose activation (PINK1 increase), actives largely listed as activators | hit rate 0.2% among 410,000; active = well fitted activation curve with a large enough effect; inconclusive = small, poorly fitted or top-dose-only effect; inactive = flat fitted curve, though single readings scatter; cell line not stated here;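 note: potency is the fitted concentration of half-maximal effect; % of control where 0% means no effect; nearly all actives have a fitted effect of over 65% in size; a mitochondrial uncoupler was the plate control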
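Measures PINK1 amount and localization on or inside mitochondria by immunofluorescence. Stable cells get compounds at 5 concentrations for 24 hours before fixation and staining; CCCP controls included.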
Numbers without * were called inactive.

Every second line gives: TRPML1 ag	PINK1 expr mod
Cc1cc(C)c2oc(C(=O)Nc3c(C)n(C)n(-c4ccccc4)c3=O)cc(=O)c2c1
  -0.9	0.2%
COc1ccc(C(=O)c2cnc3ccc(C)cc3c2S(=O)(=O)c2ccccc2)cc1
  2.0	-1.4%
COc1cc2c(NC3CCN(C)CC3)nc(N3CCCN(C)CC3)nc2cc1OCCCN1CCCC1
  -0.2	-0.9%
Cc1ccc(S(=O)(=O)Nc2nc3n(n2)C(c2ccccc2Cl)C=C(c2ccccc2)N3)cc1 (stereo not drawn)
  2.3	-1.2%
CCOc1ccc(NC(=O)c2ccc3c(c2)c(C)c(C)n3Cc2ccc(F)cc2)cc1
  0.8	9.3%
O=C(CC(c1cccs1)N1Cc2ccccc2C1=O)Nc1cccc(F)c1 (stereo not drawn)
  4.7	-1.1%
COC(=O)C(CCSC)NC(=O)Cn1ncc2c([nH]c3ccccc32)c1=O (stereo not drawn)
  2.7	1.1%
CN(Cc1ccccc1)c1ncnc2c1nc1n2CCCC1
  0.3	-4.8%
Cc1nc2nc(C)c(CCC(=O)NCCc3ccccc3)c(C)n2n1
  -0.1	1.8%
CCN(CC)S(=O)(=O)c1ccc2c(c1)nc(CN(C)C(=O)Nc1ccc(F)cc1)n2C
  -0.8	0.5%
O=C(Cn1c(=O)n(CC2CCCO2)c(=O)c2ccccc21)Nc1ccc(F)cc1F (stereo not drawn)
  -0.7	2.1%
CCc1ccc(NCc2cc3cc4c(cc3n(CC(=O)Nc3ccccc3OC)c2=O)OCCO4)cc1
  1.8	-0.9%
CN(C)c1ccc(/C=C/c2ccnc3ccccc23)cc1Br
  -0.3	4.2%
O=C(c1ccc2c(c1)N(Cc1cccc(F)c1)C(=O)c1ccccc1S2)N1CCOCC1
  1.8	1.6%
O=C(C1CCN(S(=O)(=O)c2cccc3nonc23)CC1)N1CCN(c2ccccc2)CC1
  -0.7	3.0%

Some values from above.
Value for `CCOc1ccc(NC(=O)c2ccc3c(c2)c(C)c(C)n3Cc2ccc(F)cc2)cc1` in PINK1 expr mod: 9.3%
Value for `O=C(C1CCN(S(=O)(=O)c2cccc3nonc23)CC1)N1CCN(c2ccccc2)CC1` in TRPML1 ag: -0.7

Later entries
Every second line gives: TRPML1 ag	PINK1 expr mod
COc1ccccc1-c1nc2c(c(SCC(=O)Nc3c(C)cc(C)cc3C)n1)Cc1c(CO)cnc(C)c1O2
  -0.3	1.4%
CCC(=O)N1CCc2cc(Br)cc(S(=O)(=O)CCC(=O)NCc3ccccc3)c21
  -1.3	-2.4%
CC(NC(=O)CN(c1ccc(Cl)cc1Cl)S(=O)(=O)c1ccccc1)c1ccccc1 (stereo not drawn)
  2.8	1.6%
COc1ccc2nc(NC(=O)c3nc(S(=O)(=O)Cc4ccccc4F)ncc3Cl)sc2c1
  1.6	5.1%
CCCC(=O)Nc1ccc(NC(=O)c2sc3ccccc3c2Cl)cc1
  -0.5	1.7%
COc1cc(NC(=O)c2cccc(Cl)c2Cl)ccc1NC(=O)c1cc2ccccc2o1
  0.2	4.7%
COc1ccccc1CNS(=O)(=O)c1ccc2c(c1)NC(=O)CC(=O)N2
  -0.6	0.0%
Cc1ccc(NC(=O)C(=O)NCC(c2cccnc2)N2CCN(Cc3ccccc3)CC2)cc1Cl (stereo not drawn)
  0.4	0.2%
CCCNC(=O)c1cnn2c(C(F)F)cc(-c3ccccc3)nc12
  -0.8	0.8%
CCOc1ccccc1NC(=O)CSc1nc2c(oc3ccccc32)c(=O)n1Cc1ccco1
  -0.6	-0.7%
CCCOc1cccc(C2c3c(-c4ccccc4O)n[nH]c3C(=O)N2Cc2ccco2)c1 (stereo not drawn)
  0.8	3.6%
O=C(O)c1ccc(CNCc2ccc(Cl)cc2)s1
  -0.8	0.3%
COc1ccc2oc(=O)cc(CN3CCN(c4ccccc4OC)CC3)c2c1
  -0.4	0.3%
CCN1CCN(c2ncc3c(n2)CCN(Cc2ccc(OC)c(OC)c2)C3)CC1
  -0.4	-1.0%
Cc1ccc(Nc2cc(C)c(C#N)c3nc4ccccc4n23)cc1Cl
  0.3	4.1%
CCCOc1ccc(CNC(=O)c2[nH]c3cc(OC)ccc3c2Sc2ccccc2)cc1
  0.1	1.3%
COc1ccc(Nc2cc(C(=O)NC3CCC(C)CC3)c3ccccc3n2)cc1OC (stereo not drawn)
  6.0	1.6%
Fc1cccc(-n2ncc3c2ncn2nc(Cc4ccccc4)nc32)c1
  2.0	0.2%
CCn1cc(C2N3CC4(CC)CN2CC(CC)(C3)C4=O)c2ccccc21 (stereo not drawn)
  1.1	2.1%
O=C(CSc1cn(CCNC(=O)c2ccccc2F)c2ccccc12)Nc1ccccc1F
  2.8	5.1%
Cc1ccc(Cn2c(CNC(=O)c3ccc(Cl)c([N+](=O)[O-])c3)nc3cccnc32)cc1
  -1.0	1.4%
Cc1nnc(NC(=O)C2CCN(C(=O)c3ccsc3)CC2)s1
  -0.8	-0.6%
Cc1ccc2oc(-c3cc(NC(=O)c4oc5ccccc5c4C)ccc3Cl)nc2c1
  1.9	-0.1%
Cc1ccc(C)c(Cn2c3ccccc3c3cnn(CC(=O)NCC(C)c4ccccc4)c(=O)c32)c1 (stereo not drawn)
  1.0	7.3%
O=C(CSc1cn(CCNC(=O)c2c(F)cccc2F)c2ccccc12)Nc1ccccc1F
  1.4	0.0%
COc1cc2c(=O)n(CCc3ccccc3)c(=O)n(CC(=O)Nc3ccccc3)c2cc1OC
  3.6	3.3%
COc1ccc(C(=O)NCC(c2ccc(N(C)C)cc2)N2CCc3ccccc32)cc1OC (stereo not drawn)
  0.4	-0.8%
CC(C)c1ccccc1NC(=O)CN1C(=O)c2cccc3cccc1c23
  3.1	7.0%
COc1ccc(N2CCN(C(=O)c3cccc(NC(=O)c4nsc5ccccc45)c3)CC2)cc1
  0.6	0.3%
O=C(COc1ccccc1Cl)Nc1nc2c(s1)CCCC2
  2.8	2.7%

More entries.
SMILES	TRPML1 ag	PINK1 expr mod
CCS(=O)(=O)c1ccccc1C(=O)N1CCN(c2nc3ccccc3s2)CC1	-0.4	0.3%
CC(=O)Nc1c(C)nn(-c2ccccc2)c1N1CCC(C(=O)NCc2cccc(Cl)c2)CC1	-0.5	1.8%
Cc1ccc(NC(=O)C2CCN(c3nn4c(=O)cc(C)nc4s3)CC2)cc1	-0.9	-0.4%
O=C(OCCF)N1CCN(/[N+]([O-])=N/Oc2ccc([N+](=O)[O-])cc2[N+](=O)[O-])CC1	1.2	0.8%
CCCCCCSc1nnc2c(n1)OC(C)Nc1ccc(Br)cc1-2 (stereo not drawn)	0.9	2.5%
COc1ccc(NC(=O)Cn2c(=O)c3cccn3c3ccccc32)cc1	1.3	3.4%
CC(C)Oc1cccc(C(=O)Nc2ccc3oc(-c4ccccc4)nc3c2)c1	-0.6	1.0%
COc1ccccc1CCNC(=O)Cc1c(C)c2cc3c(C)coc3cc2oc1=O	-1.1	-0.3%
O=C(NC1CCCCC1)c1ccc(Cn2c(SCc3ccc(F)cc3)nc3cccnc32)cc1	0.8	1.5%
CCOC(=O)C1=C(CN2CCN(CC)CC2)NC(=O)NC1c1ccc(Cl)cc1 (stereo not drawn)	0.2	2.1%
N#Cc1c(C(F)(F)F)cc(-c2cccs2)nc1SCc1ccccc1F	-0.5	0.4%
O=C(NCCCc1nc2ccccc2n1Cc1ccccc1Cl)c1ccco1	-1.0	-0.4%
COc1cccc(C(=O)NCc2ccc3c(c2)CCN3C(=O)c2ccncc2)c1	-0.5	0.8%
CCOC(=O)C1CCCN(C(=O)C2CCN(c3nnc(C)c4c(C)n(-c5ccccc5)nc34)CC2)C1 (stereo not drawn)	2.6	0.9%
CCc1ccc2occ(CC(=O)Nc3ccc(OC)c(Cl)c3)c2c1	3.1	-0.8%
CCCCc1nn2c(=O)cc(COC(=O)c3cccc(OC)c3)nc2s1	-1.2	-0.1%
CCOc1ccc(C2=CC(c3cc(Br)ccc3F)n3ncnc3N2)cc1Cl (stereo not drawn)	3.4	0.7%
CCCc1ccc(-c2ccc(C(=O)Oc3ccc(Br)cc3)cc2)nc1	1.8	0.7%
CC(C)COc1ccc(C(=O)Nc2onc3c2CCCC3)cc1	0.3	-1.0%
COc1ccc(OC)c(NC(=O)Cn2c(=O)n(Cc3ccco3)c(=O)c3cc(OC)c(OC)cc32)c1	0.4	8.6%
COc1ccc(-c2cn3nc(N4CCC(C(=O)Nc5cc(Cl)ccc5OC)CC4)sc3n2)cc1	1.2	0.5%
Cc1ccc(S(=O)(=O)N2CCN(c3nc(-n4ccnc4)nc4ccccc34)CC2)cc1	-0.7	2.3%
Cc1cccc(S(=O)(=O)c2cn(C)c3cc(N4CCC(C)CC4)c(F)cc3c2=O)c1	0.2	4.8%
CC(C)Oc1ccc(CNC(=O)C2=Cc3ccccc3OC2)cc1	0.7	-0.1%
COc1cccc(C(=O)Nc2ccc3oc(-c4cccc5c(Br)cccc45)nc3c2)c1	-0.8	1.0%

Whole records, quoted from the list. Values in the order: TRPML1 ag	PINK1 expr mod
Listed for O=C(NC1CCCCC1)c1ccc(Cn2c(SCc3ccc(F)cc3)nc3cccnc32)cc1 : 0.8	1.5%
Listed for COc1cccc(C(=O)Nc2ccc3oc(-c4cccc5c(Br)cccc45)nc3c2)c1 : -0.8	1.0%
Listed for COc1ccc(OC)c(NC(=O)Cn2c(=O)n(Cc3ccco3)c(=O)c3cc(OC)c(OC)cc32)c1 : 0.4	8.6%
Listed for CCCCc1nn2c(=O)cc(COC(=O)c3cccc(OC)c3)nc2s1 : -1.2	-0.1%
Listed for CCS(=O)(=O)c1ccccc1C(=O)N1CCN(c2nc3ccccc3s2)CC1 : -0.4	0.3%

New compounds follow.
SMILES	TRPML1 ag	PINK1 expr mod
CC(C)(C)OC(=O)N1CCC(c2c(C(=O)NCc3cccs3)cnn2-c2ccc(F)cc2F)CC1	1.9	-0.5%
Cc1ccc(OCc2cc(=O)n3cc(C)sc3n2)c(C)c1	0.8	4.1%
COc1ccc(C(CC(=O)Nc2cccc(C)c2C)N2Cc3ccccc3C2=O)cc1 (stereo not drawn)	1.6	-0.6%
Cc1ccc(-n2ncc3c(N4CCC(Cc5ccccc5)CC4)ncnc32)cc1C	-0.7	0.7%
Cc1cccn2c(=O)c(C(=O)N3CCN(c4ccc(Cl)cc4)CC3)cnc12	2.5	2.7%
COc1cccc(NC(=O)COc2ccccc2C(=O)Nc2ccccc2)c1	0.3	4.2%
COc1ccc(CNC(=O)Cn2ncn3nc(-c4cccs4)cc3c2=O)cc1	0.9	8.1%
Clc1cccc(-c2nc3ccccn3c2Nc2ccc3c(c2)OCCO3)c1	4.8	3.4%
CCOc1ccc2nc(N(Cc3cccnc3)C(=O)c3cccs3)sc2c1	0.7	-6.6%
OC1C(Br)=Cc2ccccc21 (stereo not drawn)	-0.3	-0.8%
CCn1nnc2cc(C(=O)Nc3ccc(Br)cc3F)ccc21	0.6	7.6%
Cc1ccccc1NC(=O)c1nc(S(=O)(=O)Cc2ccccc2F)ncc1Cl	2.6	5.0%
CCc1cccc(CC)c1NC(=O)c1cc(S(=O)(=O)N2CCc3ccccc32)cn1C	1.6	3.8%
CCc1ccccc1NC(=O)Cn1c(=O)n(C(C)C)c(=O)c2oc3ccccc3c21	-1.0	0.8%
O=C(Cc1ccc(NC(=O)N2CCSc3ncccc32)cc1)NCc1ccccc1Cl	0.5	-1.5%
CC(=O)Nc1nonc1-c1nnc(SCc2ccc(F)cc2)n1C	1.2	1.2%
COc1ccc(-c2nc3scc(CCNS(=O)(=O)c4ccc(Oc5ccccc5)cc4)n3n2)cc1OC	3.5	2.0%
O=C(O)CSc1nc2ccc(NC(=O)COc3ccc(Cl)cc3)cc2s1	1.3	1.0%
CCOC(=O)c1cccc(NC(=O)c2oc3c(c2C)-c2[nH]ncc2CC3)c1	0.3	3.6%
Cc1ccc(S(=O)(=O)C(CNS(=O)(=O)c2ccc(F)c(C)c2)c2cccs2)cc1 (stereo not drawn)	1.8	-1.5%
CC1CCN(S(=O)(=O)c2ccc3c(c2)c(=O)c(C(=O)NC(C)c2ccccc2)cn3C)CC1 (stereo not drawn)	-0.6	4.5%
Cc1cccc(C)c1NC(=O)CSc1nccn1C	1.7	-1.1%
Cc1ccc(N2CC(C)Cn3c2nc2c3c(=O)n(CC(=O)O)c(=O)n2C)cc1 (stereo not drawn)	-0.6	0.0%
O=C(NCCCN1CCN(c2ccccc2)CC1)c1ccc2nc(Cc3ccccc3)oc2c1	0.3	1.9%
COc1ccc(Cl)cc1NC(=O)N1CCN(Cc2cc(=O)n3nc(-c4ccccc4)sc3n2)CC1	-0.9	-1.3%
N#Cc1nc(-c2ccc(COc3ccc(Cl)cc3)o2)oc1N1CCC(C(N)=O)CC1	-0.5	-0.5%
CCc1ccccc1NC(=O)Cn1nnc(-c2nc(-c3ccc(C)cc3)no2)c1N	1.9	-0.6%

Reprinted at random: 4 entries already listed, in no set order.
SMILES	TRPML1 ag	PINK1 expr mod
OC1C(Br)=Cc2ccccc21 (stereo not drawn)	-0.3	-0.8%
Cc1nnc(NC(=O)C2CCN(C(=O)c3ccsc3)CC2)s1	-0.8	-0.6%
CCOC(=O)C1CCCN(C(=O)C2CCN(c3nnc(C)c4c(C)n(-c5ccccc5)nc34)CC2)C1 (stereo not drawn)	2.6	0.9%
CC(=O)Nc1nonc1-c1nnc(SCc2ccc(F)cc2)n1C	1.2	1.2%

An excerpt, so the mix of outcomes need not match the whole.
